From PubChem BioAssay
MgrA DNA FP – modulators of Staphylococcus aureus MgrA DNA binding; fluorescence polarization; inhibition, %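 (about 10 µg/mL by stock and volumes)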; 0.13% of 84,000 active; AID 602314;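 active = above 50% in either of two replicates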;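 note: 0% = protein plus DNA without compound and 100% = DNA alone without protein; higher means less MgrA bound to DNA so lower polarization; one replicate is shown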
Sa helicase inh – S. aureus DNA helicase inhibition; 0.05% of 120,000 active; inhibition, %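 (tested at about 80 µM)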; purified S. aureus helicase, fluorescence unwinding assay; about half of the hits fall short of the stated cut;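 active = both duplicates at 50% or more, or one of them with a favoured structure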;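 note: 0% = mean of negative control wells and 100% = mean of positive control wells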
Starred values were filed as active, the others as inactive; nt = not tested or not shown; & = joins results of further samples. A portion of the library; count on the stated rates, not on these rows.

SMILES	MgrA DNA FP	Sa helicase inh
OC(C#Cc1ccccc1)c1cccs1 (stereo not given)	3.1	12
O=C(Cc1nc2ccccc2s1)c1ccccc1	-0.1	-16
Cc1cc(SCc2[nH]nc3oc(=O)cc(C)c23)c(C)cc1Cl	-2.5	nt
C1=C(C23CC4CC(CC(C4)C2)C3)SC2=NCCN12	nt	9
COc1ccc(C(=O)N=S2CCN(S(=O)(=O)c3ccc(Cl)cc3)CC2)cc1	0.6	nt
COc1cc2c(C(=O)N3CCN(c4ccccc4C)CC3)c(C)oc2cc1Br	0.4	-6
O=C1CC2CCC(CN1)N2CC(=O)Nc1ccc(F)cc1 (stereo not given)	17	7
CC(C)(C)c1ccc(-c2noc(C(=O)NN)n2)cc1	nt	-3
O=C1CCCc2c1c1ccccc1n2Cc1ccccc1	0.7	nt
Cc1cc(CNC(=O)NCc2ccco2)c(C)n1-c1ccc(F)cc1	nt	6
Cc1cc(C(=O)Nc2cccc(C(F)(F)F)c2)no1	nt	26
CN(Cc1ccccc1)C(=O)c1cc(-c2ccccc2)n[nH]1	0.5	-8
FC(F)(F)c1ccc(Cl)c(N=NN2CCOCC2)c1	-1.0	nt
CN=C(Nc1ccc(C(=O)OC)s1)c1ccccc1	nt	13
Cc1cc(-c2cn(/N=C/c3ccc(Cl)cc3Cl)c(N)n2)c(C)s1	1.0	0

Among those listed so far, eight contain nitrogen in an aromatic ring.
SMILES	MgrA DNA FP	Sa helicase inh
O=C(Cc1nc2ccccc2s1)c1ccccc1	-0.1	-16
Cc1cc(SCc2[nH]nc3oc(=O)cc(C)c23)c(C)cc1Cl	-2.5	nt
CC(C)(C)c1ccc(-c2noc(C(=O)NN)n2)cc1	nt	-3
O=C1CCCc2c1c1ccccc1n2Cc1ccccc1	0.7	nt
Cc1cc(CNC(=O)NCc2ccco2)c(C)n1-c1ccc(F)cc1	nt	6
Cc1cc(C(=O)Nc2cccc(C(F)(F)F)c2)no1	nt	26
CN(Cc1ccccc1)C(=O)c1cc(-c2ccccc2)n[nH]1	0.5	-8
Cc1cc(-c2cn(/N=C/c3ccc(Cl)cc3Cl)c(N)n2)c(C)s1	1.0	0

(cont.)
SMILES	MgrA DNA FP	Sa helicase inh
OC1COC(Oc2ccccc2)C(O)C1O (stereo not given)	-0.9	23
CCN1C(=O)/C(=C\c2cc(C)n(CC(F)(F)F)c2C)SC1=S	-5.2	-32
CCN1C(=O)CCS(=O)(=O)c2ccccc21	1.1	3
O=C(Nc1ccccc1C(=O)OCn1nnc2ccccc2c1=O)c1ccco1	nt	0
Cc1ccc2[nH]c(=O)c3cc(C(=O)NCCCN4CCN(c5ccc(F)cc5)CC4)sc3c2c1	3.0	13
CCc1cccc(O[C@@H]2O[C@@H]3COC(c4ccccc4)O[C@H]3[C@H](O)[C@H]2NC(C)=O)c1 (stereo not given in full)	0.2	15
CCOC(=O)c1cnc2c(C)c(Cl)ccc2c1NCCN(C)C	nt	-1
Nc1ccccc1C12CC3CC(CC(C3)C1)C2	-4.7	8
COC(=O)c1ccc(CO/N=C/c2ccc(OC)cc2)o1	nt	6
CCn1c(=O)c2c(n(Cc3ccccc3)c1=O)NC1=C(C(=O)CCC1)C2c1ccc(OC)cc1 (stereo not given)	nt	-25
O=C1/C(=C/c2ccccn2)CC(c2ccccc2)C/C1=C\c1ccccn1 (stereo not given)	-1.0	7
CC(C)(C)SC(C(=O)N1CCOCC1)c1ccc(Br)cc1 (stereo not given)	-3.0	17
COc1ccccc1C1OC(=O)C[C@@H]1C(=O)Nc1nncs1 (stereo not given in full)	nt	12
COc1ccc(CNc2ccccn2)cc1	2.2	nt
CCCCC(=O)c1c(O)c2ccccc2oc1=O	nt	6

3 compounds already listed, ordered by the number in Sa helicase inh, ascending.
SMILES	MgrA DNA FP	Sa helicase inh
CCN1C(=O)/C(=C\c2cc(C)n(CC(F)(F)F)c2C)SC1=S	-5.2	-32
CCOC(=O)c1cnc2c(C)c(Cl)ccc2c1NCCN(C)C	nt	-1
Nc1ccccc1C12CC3CC(CC(C3)C1)C2	-4.7	8

Other records:
SMILES	MgrA DNA FP	Sa helicase inh
CCc1ccc(NC(=O)C(C)Sc2ncnc3ccccc23)cc1 (stereo not given)	0.5	-13
O=C(Nc1ccc(S(=O)(=O)Nc2ncccn2)cc1)C1CC(=O)N(c2ccccc2)C1 (stereo not given)	-3.2	15
CCn1cc(C(=O)N2CCCCC2C)c(=O)c2ccc(C)nc21 (stereo not given)	nt	5
CCN(CC)CCNC(=O)c1cc(Br)c(N)cc1OC	-1.4&-0.7	nt
COc1ccc(NC(=O)c2ccccc2C(F)(F)F)cc1OC1CCCC1	-0.5	nt
CN(C)Cc1ccc(CNCc2cnn(-c3ccccc3)n2)cc1	nt	-7
CCn1ncc(C2=NOC(C(=O)NCc3ccccc3)C2)c1C (stereo not given)	nt	-18
Cc1cccc(C(=O)OC(C)CN2C(C)CCCC2C)c1 (stereo not given)	nt	-26
c1cc2nc3c(nc2c2nonc12)CCCC3	nt	-13
COc1cc(OC)cc(C(=O)c2c(C)c(C#N)c3ccccn23)c1	0.5	-22
CCOC(=O)C1=C(CN(Cc2ccco2)C2CCCC2)NC(=O)NC1c1ccc(Cl)cc1 (stereo not given)	nt	3
CC(NCC1OCc2ccccc2CO1)c1ccccc1 (stereo not given)	-0.1	-12
CC(C)c1nc(/N=C/N(C)C)nc(=O)n1C	-1.2	nt
O=C(Cc1ccc(Cl)cc1)OCC(=O)N1CCCCCC1	-0.5	14
Cc1c(CN(C)C(=O)CSc2nc(-c3ccco3)cc(C(F)(F)F)n2)cnn1C	nt	-21

(next part)
SMILES	MgrA DNA FP	Sa helicase inh
Cc1[nH]ccc(=O)c1OCC(=O)O	-4.2	nt
CCc1ccc(NC(=O)c2cnc3ccccn3c2=O)cc1	-0.5	5
CCOC(=O)CC(N)c1ccc(C)cc1 (stereo not given)	-2.2	0
CCOC(=O)CS(=O)c1sc(C(=O)OCC)c2c1C(=O)CCC2 (stereo not given)	0.8	nt
COc1ccc(NC(=O)C(NS(=O)(=O)c2ccc3c(c2)oc(=O)n3C)C(C)C)c(OC)c1 (stereo not given)	-0.9	5
CC(=O)N(CCCCN1C(=O)c2ccccc2C1=O)c1ccc(C)cc1	5.8	17
CCc1cc(=O)oc2cc(C)cc(OCC(=O)C(C)(C)C)c12	12	9
COc1ccccc1Cn1ccn(CC(=O)NCCc2ccccc2)c(=O)c1=O	0.7	-7
COc1cc(Cl)c(C)cc1NCC(O)Cn1nnnc1-c1ccccc1 (stereo not given)	-3.8	-10
Nc1c(C(=O)c2ccccc2)sc2nc3c(cc12)CCCC3	1.8	12
Cc1ccc(C)c([C@H]2[C@H](C(=O)c3ccccc3)N3c4ccccc4C=CC3C2(C#N)C#N)c1 (stereo not given in full)	0.0	-6
CCOC(=O)c1ccc(NN)cc1	0.3	6
Cc1ccccc1NC(=O)c1cc2c(s1)-c1ccccc1S(=O)(=O)C2	0.1	6
Cc1ccc(-n2c(C)cc(C3=NN=C(N)SC3)c2C)cc1C	nt	18
Cn1cc(S(=O)(=O)N2CCOCC2)cc1C(=O)N(CCc1ccccc1)Cc1ccccc1	nt	-16

Next part.
SMILES	MgrA DNA FP	Sa helicase inh
Cc1ccc(O)c(C2(O)C(=O)c3ccccc3C2=O)c1	nt	-2
O=C1NCCN1C(=O)c1cccc(Cl)c1	-1.6	0
Cc1nc(Nc2nc(CSc3ccc(Cl)cc3)cc(=O)[nH]2)nc2c(C)cccc12	nt	-3
S=C(Cc1ccc2c(c1)OCCO2)N1CCOCC1	nt	-6
CCOc1cc(C(=O)Nc2cccc(-c3nc4ccccc4s3)c2C)cc(OCC)c1OCC	3.5	nt
CC(=O)Oc1ccc(C(C)(C)c2ccc(OC(C)=O)cc2)cc1	3.1	-1
CCC(=O)OC1(C)CC2CC(CN(C(=O)C3CCCCC3)C2)C1 (stereo not given)	2.9	-4
COC(=O)c1ccccc1NC(=O)Nc1nnc(N2CCCC2)s1	nt	12
CC1=C(C(=O)NCCN2CCCC2)C2(CCCCCC2)OC1=O	nt	-25
O=C(O)c1cccc(COc2ccc(Cl)cc2)c1	0.7	-6
Cc1ccc(S(=O)(=O)N2CCN(Cc3ccc4c(c3)OCO4)CC2)cc1C	nt	36
NS(=O)(=O)c1cc(C(=O)NCC2CCCCC2)ccc1Cl	nt	7
O=C(CSc1nnc(-c2ccncc2)o1)NC(=O)Nc1ccccc1	0.2	nt
CCOC(=O)c1cnc(-c2cccs2)nc1Nc1ccccc1	-1.0	nt
O=C(Nc1ccc(N2CCOCC2)cc1)Nc1ccc2nc(-c3ccco3)c(-c3ccco3)nc2c1	2.4	6

(continued)
SMILES	MgrA DNA FP	Sa helicase inh
CCn1nccc1C(=O)NC1=C(C#N)CCC1	1.1	7
O=C(c1ccc2nccnc2c1)N1CCCc2ccccc21	0.8	1
CC1CN(Cc2ccccc2)c2ccccc2NC1=O (stereo not given)	nt	-17
O=C(CSCc1ccco1)NC1CC1	-4.7	9
COc1cc(OC)c(NC(=O)C2CCCN(S(=O)(=O)c3ccc4c(c3)oc(=O)n4C)C2)cc1Cl (stereo not given)	nt	-8
O=c1[nH]nc(SCc2cc(=O)n3cc(Br)ccc3n2)n1Cc1ccccc1	nt	14
Cc1[nH]c2ccccc2c1C(=O)CSC(=S)N1CCN(C)CC1	nt	35
CCn1c(SCc2nc3ccccc3c(=O)[nH]2)nnc1-c1ccc(OC)c(OC)c1	-3.9	3
Oc1c(I)cc(Cl)c2cccnc12	11	10
O=C(Oc1cccnc1I)c1ccccc1	0.4	nt
O=C(CCSCc1cnn(-c2ccccc2)c1-n1cccc1)NCc1ccco1	nt	16
NC(=O)C1=CCc2ccccc21	-2.0	nt
CCOc1ccc(C2Sc3ccccc3NC3=C2C(=O)OC3)cc1 (stereo not given)	nt	0
CCc1c(C)c(C#N)c2nc3ccccc3n2c1NCC(C)C	nt	-13
CCOc1ccc(C(C)NCCO)cc1 (stereo not given)	0.5	-11

Continuation.
SMILES	MgrA DNA FP	Sa helicase inh
CC1CCN(C(=O)Cn2cc(SCC(=O)NC(C)(C)C)c3ccccc32)CC1	nt	-1
COc1ccc(Cc2nnc(SC)[nH]c2=O)cc1	nt	31
CC(=O)Nc1ccc2nc(NC(=O)C(C)(C)C)sc2c1	nt	-7
Cc1c(C)c(C)c(CN2CCCCC2C)c(C)c1C (stereo not given)	3.4	nt
CCOC(=O)c1ccc2nc(C(F)(F)F)nc(NCCCO)c2c1	nt	-18
NC(=O)CSc1cn(Cc2ccc(F)cc2)c2ccccc12	nt	16
COC(NC(=O)c1ccccc1)c1ccccc1 (stereo not given)	nt	8
Cc1ccc(-c2cnc3ccccc3n2)cc1	-0.5	7
COCCN1C(=O)c2oc3ccccc3c(=O)c2C1c1ccc(C(=O)OC)cc1 (stereo not given)	nt	15
CCOc1cc(C=C2C(=O)NC(=S)NC2=O)ccc1OCCOCCOc1ccc(C)cc1	11	nt
Cc1ccccc1Cn1ccc(NC(=O)c2cc3ncc(Br)cn3n2)n1	8.9	12
Cc1ccc(C(=O)n2nc(-c3cccnc3)nc2N)cc1	1.4	-4
CCc1nc2ccccc2nc1N1CCN(S(=O)(=O)c2ccccc2)CC1	-0.8	nt
Cc1cccc(CCNC(=O)c2ncoc2-c2cccs2)c1	nt	1
CC1(C)CC2=NNC(c3ccccc3)C2CO1 (stereo not given)	-4.0	11

Next section:
SMILES	MgrA DNA FP	Sa helicase inh
O=C(c1cccs1)N1c2ccccc2Sc2ccccc21	0.1	-16
CCc1ccccc1-n1c(SCC(O)C(F)(F)F)nc2ccccc2c1=O (stereo not given)	-2.1	nt
COc1cc(-c2nnc(SCC(=O)c3cc4c5c(c3)CC(=O)N5CCC4)o2)cc(OC)c1OC	nt	5
O=C(CCC1=NS(=O)(=O)c2ccc(C(F)(F)F)cc2N1)NCCc1ccco1	nt	3
On1c(-c2ccccc2)cc2ccccc21	nt	3
O=C(Nc1nn2cc(-c3ccccc3)nc2s1)c1ccccc1	nt	10
CC(=O)N1c2ccc(S(=O)(=O)N3CCc4ccccc43)cc2CC1C (stereo not given)	-0.2	11
CC(C)CN(Cc1nnc(-c2ccccc2)o1)CC(C)C	nt	24
C=CCn1c(=O)[nH]c2ccccc21	2.9	2
CCCC(O)=NS(=O)(=O)c1ccc(N=NN(C)C)cc1	0.2	-3
Oc1ccc(/C=N/NC(=S)Nc2ccc(Cl)cc2Cl)c(O)c1O	nt	15
Cc1ccc(CC(C#N)Sc2nnc(C)n2Cc2ccccc2)cc1 (stereo not given)	nt	-2
CC(C)C(NC(=O)c1ccccc1)c1nnc(SCC(=O)Nc2nccs2)n1C (stereo not given)	4.9	3
C=CCc1cc(OC)ccc1O	nt	-17
CCn1c(CCNC(=O)c2ccc(OC)c(OC)c2)nc2ccccc21	nt	-19

Other entries:
SMILES	MgrA DNA FP	Sa helicase inh
Cc1cc(Cl)ccc1Oc1ccc(N)cn1	2.7	nt
O=C(ON=C1C2CC3CC(C2)CC1C3)c1ccc(Cl)cc1	1.5	nt
Cc1ccc(C(=O)CC(c2ccco2)S(=O)(=O)c2ccccc2)cc1 (stereo not given)	nt	16
O=C(CSc1cc(Cl)ccc1Cl)NCCN1CCOCC1	-9.8	11
O=C(CSCc1ccco1)c1ccc(F)cc1	nt	14
